Assay outcomes deposited in PubChem BioAssay by National Center for Advancing Translational Sciences (NCATS).
KAT2A inh – qHTS Assay for Inhibitors of GCN5L2. Histone acetyltransferase KAT2A (Homo sapiens), Q92830. GCN5L2 HAT assay, ThioGlo1 CoA-SH fluorescence. Potency, µM (doses to about 58.9 µM), inactives show at the top dose activity change, negative = inhibition, hits mostly inhibitors. 390,000 compounds, 0.21% hits; active = well fitted inhibition curve with a large enough effect; inconclusive = small, poorly fitted or top-dose-only effect, or another doubt; inactive = no such curve, though single readings can be large or run the other way
Target sequence (Q92830 whole entry, looked up): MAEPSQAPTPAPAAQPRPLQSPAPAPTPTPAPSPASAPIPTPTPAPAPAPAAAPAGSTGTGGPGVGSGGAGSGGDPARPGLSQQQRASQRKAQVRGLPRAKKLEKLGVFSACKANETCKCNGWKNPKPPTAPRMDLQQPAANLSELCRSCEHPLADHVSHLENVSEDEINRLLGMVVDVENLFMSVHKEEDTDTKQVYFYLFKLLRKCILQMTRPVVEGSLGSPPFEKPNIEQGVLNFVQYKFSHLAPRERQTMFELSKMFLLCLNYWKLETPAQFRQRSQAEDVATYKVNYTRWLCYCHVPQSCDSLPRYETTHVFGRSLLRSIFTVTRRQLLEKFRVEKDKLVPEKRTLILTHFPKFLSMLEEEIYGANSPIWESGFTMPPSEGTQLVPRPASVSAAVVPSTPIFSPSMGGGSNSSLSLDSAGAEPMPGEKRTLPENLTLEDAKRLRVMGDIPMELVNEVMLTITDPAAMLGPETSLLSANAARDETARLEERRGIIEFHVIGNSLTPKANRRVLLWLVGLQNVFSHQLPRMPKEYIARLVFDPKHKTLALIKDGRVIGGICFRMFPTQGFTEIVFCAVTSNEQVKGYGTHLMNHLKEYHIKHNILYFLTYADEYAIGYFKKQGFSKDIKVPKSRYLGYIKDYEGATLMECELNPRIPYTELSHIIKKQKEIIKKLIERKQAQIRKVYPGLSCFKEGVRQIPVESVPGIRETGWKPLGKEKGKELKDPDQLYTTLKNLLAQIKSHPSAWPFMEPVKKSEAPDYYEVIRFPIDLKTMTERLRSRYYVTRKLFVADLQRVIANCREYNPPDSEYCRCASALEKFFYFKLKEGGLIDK
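Free CoA generated was detected with ThioGlo1 (50uM) fluorescence at Ex340nm/Em540nm, read immediately and after 20 min at room temperature. Enzyme, 20 nM in HEPES pH 7.5 buffer, saw compounds 15 min before adding 75uM H3(1-25) peptide and 70uM acetyl-CoA.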
* = called active by the depositor; ? = inconclusive; & = joins results of further samples; [ ] = another dose, or the depositor's remark. % is set by controls: 0 for no effect and ±100 for the full control effect; potency is the fitted concentration of half-maximal effect.

Preview, six compounds:
SMILES | KAT2A inh
N/C(=N\O)c1ccccc1-n1cccc1 | 1.0%
CCNc1nc(NCC)nc(OCCNS(=O)(=O)c2cc(C)ccc2C)n1 | -9.3%
Cc1nn(-c2ccc(Cl)nn2)c(=O)c2ccccc12 | -0.3%
O=C(CCCN1C(=O)c2ccccc2C1=O)NC1CCCCCC1 | 0.4%
CCOc1ccccc1OCCCOc1ccc(C)cc1Br | -1.2%
CC(Sc1ccccc1)C(=O)NNC(=O)c1csc(N2CCOCC2)n1 (configuration not stated) | -0.9%

All compounds of this part, from the start:
SMILES | KAT2A inh
N/C(=N\O)c1ccccc1-n1cccc1 | 1.0%
CCNc1nc(NCC)nc(OCCNS(=O)(=O)c2cc(C)ccc2C)n1 | -9.3%
Cc1nn(-c2ccc(Cl)nn2)c(=O)c2ccccc12 | -0.3%
O=C(CCCN1C(=O)c2ccccc2C1=O)NC1CCCCCC1 | 0.4%
CCOc1ccccc1OCCCOc1ccc(C)cc1Br | -1.2%
CC(Sc1ccccc1)C(=O)NNC(=O)c1csc(N2CCOCC2)n1 (configuration not stated) | -0.9%
O=C(Nc1ccc(C(F)(F)F)cc1)C(Cc1ccccc1)n1cccc1 (configuration not stated) | -18.5%
Cc1cccc(C)c1NC(=S)NCCCN1CCCC1=O | -3.7%
CCOC(=O)C1CCN(c2c(C(=O)c3ccc(C)cc3)cnc3ccc(F)cc23)CC1 | -11.4%
CNc1snc(C)c1C(=O)OC(C)C(=O)Nc1cccc(C)c1 (configuration not stated) | -2.2%
COc1cccc(-c2cc(C(=O)N3CCCCCC3)no2)c1 | -4.7%
CCn1c(SCC(=O)N/N=C/C=C\c2ccccc2[N+](=O)[O-])nc2ccccc21 | -3.2%
Cc1cc(C(C)(C)C)cc(C)c1S(=O)(=O)N1CCN(C(=O)c2cc([N+](=O)[O-])c[nH]c2=O)CC1 | -2.4%
O=S(=O)(/N=C(/c1ccc(F)cc1)N1CCCCC1)c1ccc(Cl)cc1 | 1.7%
O=C(C1CC1)N1CCc2cc(S(=O)(=O)NC3CCN(Cc4ccccc4)CC3)ccc21 | -8.8%
COc1ccc(C)cc1NC(=O)COC(=O)C1CCN(C(=O)c2ccc(Cl)cc2)CC1 | -14.2%
O=C(c1ccc(F)cc1)N(C(=O)c1ccc(F)cc1)c1ncccn1 | -9.6%
COc1cc2nc(CC(C)C)n(NC(=O)c3ccccc3Br)c(=O)c2cc1OC | -7.3%
Cc1sc2ncnc(N3CCC(C(=O)Nc4ccc(Br)cc4Br)CC3)c2c1C | 0.7%
CC(C)(C)c1ccc(C(=O)c2c[nH]c(C(=O)NCCc3ccccn3)c2)cc1 | -11.3%
O=C(Nc1ccccc1)C1CCCCC1 | -7.4%
COc1ccc(NC(=O)CO/N=C2/CCCc3nonc32)c(OC)c1 | -14.1%
CC(C)(C)OC(=O)NC(=NCCCc1cn(CC(=O)N2CCN(C(=O)OC(C)(C)C)CC2)nn1)NC(=O)OC(C)(C)C | 9.5%
CCCC(=O)Nc1cccc(-c2nc3cc(C)c(C)cc3o2)c1 | 0.8%
CCOc1ccc(NC(=O)CSc2nc3ccccc3c(=O)n2CCCC(=O)NCCCN2CCCC2=O)cc1 | -7.4%

Three entries already listed, sorted by formula weight, rising:
SMILES | KAT2A inh
CCCC(=O)Nc1cccc(-c2nc3cc(C)c(C)cc3o2)c1 | 0.8%
O=S(=O)(/N=C(/c1ccc(F)cc1)N1CCCCC1)c1ccc(Cl)cc1 | 1.7%
CC(Sc1ccccc1)C(=O)NNC(=O)c1csc(N2CCOCC2)n1 (configuration not stated) | -0.9%

Going on with the list.
SMILES | KAT2A inh
CCOc1ccc(NC(=O)C(=O)NCCCn2ccnc2)cc1 | 2.7%
CC(=O)Nc1c(NC(=O)CC#N)[nH]c2c(c1=O)c(=O)n(C)c(=O)n2C | 0.0%
CCOc1ccc(N(CC(=O)NC2CCCCC2)C(=O)CCC(=O)Nc2nc(C)cs2)cc1 | -6.0%
Cc1cccc(/C=C2\Sc3ccc(C(=O)N4CCC(C(N)=O)CC4)cc3N(C)C2=O)c1 | -16.5%
Nc1ccn([C@@H]2CS[C@H](CO)O2)c(=O)n1 | 21.3%&-17.1%&1.6%
Nc1cc(-c2ccc(Br)cc2)nn1S(=O)(=O)c1cccc2nsnc12 | -6.7%
O=C(C1CCCN(S(=O)(=O)c2cccc3nsnc23)C1)N1CCN(c2ccccc2Cl)CC1 (configuration not stated) | -2.6%
Cc1c(C)n(C)c2ccc(C(=O)NCc3cccs3)cc12 | 0.6%
Cc1cccc(C)c1N(C(=O)c1ccco1)C(C(=O)NC1CCCC1)c1ccncc1 (configuration not stated) | -3.4%
COc1ccc(N2CCN(C(CNC(=O)CC(C)(C)C)c3ccc4c(c3)OCO4)CC2)cc1 (configuration not stated) | 1.3%
O=C(CNC(=S)N(Cc1ccc(F)cc1)C1CCCCC1)NC1CC1 | 1.8%
COC(=O)c1c(-c2ccco2)csc1NC(=O)C1CC=CCC1C(=O)O (configuration not stated) | -5.9%
O=C(NC1CC1)C1CCN(C2CCN(C(=O)/C=C/c3ccc(F)cc3)CC2)CC1 | -15.6%
COc1ccccc1CN1CCC(CNC(=O)c2cnn(-c3ccc(C)c(C)c3)c2C2CCN(C(=O)OC(C)(C)C)CC2)CC1 | 25.1%
Cc1cc(C)c2c(=O)cc(C(F)(F)F)oc2n1 | -3.3%
CC(C)(C)OC(=O)N1Cc2ccccc2C[C@H]1C(=O)NCC(=O)NC1CCCC1 | -5.2%
Cc1ccc(S(=O)(=O)Nc2ccc3nc(C)sc3c2)cc1 | 0.1%
O=C(Cc1ccc(F)cc1)NC1CCS(=O)(=O)C1 (configuration not stated) | 1.2%
CCOc1ccc(CN(C)C(=O)c2ccc(NC(=O)CC3SC(N4CCCC4)=NC3=O)cc2)cc1 (configuration not stated) | -1.2%
COc1ccc(C(=O)N/C(=C\c2cn(C)c3ccccc23)C(=O)NCCCN2CCOCC2)cc1 | -28.3%
CCSc1nc(N)c(C#N)c(-c2ccccc2Cl)c1C#N | -20.8%
Cc1c(-c2ccccc2)oc2c(C(=O)OCC(=O)Nc3ccc(F)cc3)cccc2c1=O | -3.1%
Nc1nc(SCC(=O)N2CCN(c3ccc(F)cc3)CC2)n[nH]1 | 0.9%
CCOc1ccc(C(=O)CCC(=O)N2CCN(c3ccc(O)cc3)CC2)cc1 | -0.7%
CC(=O)Nc1cccc(NC(=O)CSc2nccn2Cc2ccccc2)c1 | -4.8%&-16.9%

The list continues.
SMILES | KAT2A inh
CC1(C)CC(C)(O)P(=O)(c2ccccc2)O1 (configuration not stated) | 0.5%
C=CCn1c(C)cc(-c2csc(N)n2)c1C | -6.9%
c1cc2c3c(cccc3c1)C(N1CCCCC1)=N2 | -10.4%
O=C(Nc1cccc(-c2cnc3ccccc3n2)c1)c1ccccc1 | -1.1%
Cn1c(SCc2c(Cl)cccc2Cl)nnc1-c1cccs1 | -4.8%
CCCC(=O)c1ccc2c(c1)OCCO2 | -4.2%
CC[C@H](C)[C@H](NC(N)=O)C(=O)NCCc1ccc(OC)c(OC)c1 | 2.2%
CNC(=S)NNC(=O)c1ccc(C(C)(C)C)cc1 | -7.7%
CCN(C(=O)c1ccco1)C1C2CC3CC(C2)CC1C3 (configuration not stated) | -7.7%
O=C(COC(=O)/C=C/c1cccc([N+](=O)[O-])c1)NCc1ccco1 | 0.5%
CCN1C(=O)C(CC(=O)Nc2ccc(F)cc2)N(Cc2ccco2)C1=S (configuration not stated) | 0.5%
C[C@@H](CSc1ccc(Br)cc1)CN1CC[C@H](NC(=O)OCc2ccccc2)CCC1=O | -5.9%
CC1CCCCC1NC(=O)NC(=O)COC(=O)c1ccc(OC(F)F)cc1 (configuration not stated) | -20.4%
CC(C)=C(NC(=O)c1ccccc1)C(=O)Nc1cccc(C(=O)O)c1 | 1.5%
CCN(CC)CCNC(=O)c1ccc(N)cc1 | -11.6%
COc1ccc(Cl)cc1Nc1nc(-c2cccnc2)cs1 | -19.6%
COc1ccc(NC(=O)Nc2ccccc2F)c([N+](=O)[O-])c1 | 7.9%
O=C(O)C1CCCCC1C(=O)NCCc1ccc(F)cc1 (configuration not stated) | 3.3%
C[C@H]1CCC[C@]2(CC(=O)c3cc(F)ccc3O2)C1 | -4.2%
CC(=O)n1cc([C@H]2C=C(C(=O)N3CCOCC3)O[C@@H](OCc3ccc(CO)cc3)C2)c2ccccc21 | -2.3%
Oc1ccc(Cl)cc1N=Cc1sc2ccccc2c1Cl | 0.3%
Cc1ccc(-c2nc3cc(N)ccc3o2)c(C)c1 | -12.8%
CN(C)c1ccc(C(=O)N/N=C/c2ccccn2)cc1 | -7.7%
CC(C)=CCCC(C)CN(C)CCc1ccccn1 (configuration not stated) | -4.1%
CCOc1ccc(CCNC(=O)COC(=O)CSc2ccccc2C)cc1OCC | -2.9%

The listing continues.
SMILES | KAT2A inh
Cc1cc(C)c2c(n1)SCC(=O)N2CC(=O)Nc1ccc(C)c(C)c1 | ?
COc1ccc(C(=O)c2c3ccccc3[n+]([O-])n2CCCN)cc1 | -5.0%
O=C(NNC(=O)C12CC3CC(CC(C3)C1)C2)c1ccco1 | -7.4%
CCC1=Nc2cc(C(=O)NCCCN3CCN(C)CC3)ccc2Sc2ccccc21 | 0.3%
COc1ccc(CNC(=O)COC(=O)c2n[nH]c3ccccc23)cc1 | -2.6%
COc1ccc(Cn2c(C(=O)O)c(CNCc3cccc(OC)c3)c3ccc(C)cc32)cc1 | -6.5%
CCOC(=O)c1ccc(NC(=O)Cn2nnc(-c3ccccc3C)n2)cc1 | -28.2%
NC(=O)C1CCN(c2cc(N3CCOCC3)ccc2[N+](=O)[O-])CC1 | -6.2%
COc1ccc(-c2cc(C3CCN(Cc4cccc(C(F)(F)F)c4)CC3)[nH]n2)cc1 | -2.6%
O=C(N1CCOCC1)N1CCOCC1 | -4.8%
Cc1ccccc1Nc1ccc([N+](=O)[O-])cn1 | -21.2%
Cc1ccc(-c2nc(S(=O)(=O)c3ccc(C)cc3)c(SCC(=O)c3ccccc3)o2)cc1 | -6.0%
CC(C)(C)n1nnnc1CN1CCC(NC(=O)NC2CCCCC2)CC1 | 0.0%
CCc1nn(CCCC(=O)N2CCc3ccccc3C2)c(=O)c2cc3occc3n12 | -7.2%
O=C(COc1ccc(Oc2ccccc2)cc1)NCc1cn2ccccc2n1 | -9.9%
CC1CCN(S(=O)(=O)c2ccc(C(=O)NNC(=O)C3CC3)cc2)CC1 | 2.7%
CC(=O)NC1(c2ccc(F)cc2)CCN(C(=O)Nc2ccc(F)cc2F)CC1 | ?
CC(=O)N(C)c1ccc(NC(=O)c2ccccc2C(=O)O)cc1 | -4.3%
COc1ccc(/C(N)=N/OC(=O)c2cc(-c3ccccc3)nc3ccccc23)cc1 | -9.3%
CCn1nc(C)cc1C(=O)n1nc(C)c(Sc2ncccn2)c1C | -33.1%
N#CCC(=O)N1CC2(CC(c3cccc(NC(=O)COc4ccc(Cl)cc4)c3)=NO2)C[C@@H]1C(N)=O (some centres not stated) | -19.9%
O=C(Nc1ccc(F)cc1F)c1ccc(S(=O)(=O)N2CCCCC2)cc1 | -0.5%
Clc1cccc(Cl)c1NC1=NCCN1 | 5.1%
CCOC(=O)c1cccc(NC(=O)Cn2cnc3c2c(=O)n(C)c(=O)n3C)c1 | 0.3%
Cc1cc(C)n(-c2ccc(C(=O)OCC(=O)NCc3ccco3)cc2)n1 | 0.4%

New compounds follow
SMILES | KAT2A inh
O=C(O)c1ccc(N=NN2CCCCC2)cc1 | 0.5%
Cn1c(=O)n(CCOc2ccc([N+](=O)[O-])cc2)c2ccccc21 | -0.1%
CN(Cc1nc(-c2cccs2)no1)CC1(N2CCOCC2)CCCCC1 | -2.8%
CCOc1ccc2c(=O)c(Oc3ccccc3OCC)coc2c1 | -2.4%
COc1cc(=O)n(C)c2c(OCC(O)C(C)(C)O)cccc12 (configuration not stated) | -13.7%
O=C(Cc1ccccc1)NN1C(=O)C2C3C=CC(C3)[C@@H]2C1=O (some centres not stated) | 0.6%
C[C@H](CO)N1C[C@H](C)[C@H](CN(C)Cc2ccccc2)Oc2c(NC(=O)Nc3ccc(F)cc3)cccc2C1=O | -0.1%
Cn1c(=O)n(CCc2ccccc2)c(=O)c2c1ncn2Cc1ccccc1 | 0.8%
O=[N+]([O-])c1ccccc1/C=C/C=N/n1c(-c2ccc(Cl)cc2)n[nH]c1=S | -7.5%
COc1ccc(NC(=O)CN(C2CCCCC2)S(C)(=O)=O)cc1Cl | -6.0%
N#CCCCSc1ncccc1-c1nc2ccccc2[nH]1 | -6.8%
CCCNC(=O)C1CCC(CNS(=O)(=O)c2cccc3nsnc23)CC1 (configuration not stated) | -2.6%
O=C(c1noc2c1CCCC2)N1CCN(c2ccccc2)CC1 | -6.6%
CCN(CC(=O)Nc1c(F)cccc1F)C(=O)Cc1c[nH]c2ccccc12 | 3.1%
CS/C(=N\S(=O)(=O)c1ccc(N)cc1)NS(=O)(=O)c1cccs1 | 0.5%
Cc1ccc(-c2cc(C(F)F)n3ncc(C(=O)Nc4c(C)nn(Cc5ccccc5Cl)c4C)c3n2)cc1 | -2.1%
O=C(Nc1ccc2c(c1)OCCO2)NC1(C(F)(F)F)Oc2ccccc2O1 | -5.1%
CN1CC(c2ccccc2)C2(COc3ccccc3C2=O)C12C(=O)Nc1ccccc12 (configuration not stated) | -9.4%
COCCCNC(=O)C1CCCCN1S(=O)(=O)c1ccc(F)cc1 (configuration not stated) | 3.2%
Cc1nc2sc(C(c3cccc(F)c3)N3CCN(C(=O)c4ccco4)CC3)c(O)n2n1 (configuration not stated) | -0.2%
C#C[C@@]1(O)CC[C@@H]2[C@@H]3CCC4=C(CCC(=O)C4)[C@H]3CC[C@]21C | 5.8%[21.4 µM]
CCc1ccccc1NCc1cc(=O)oc2cc(C)ccc12 | -1.0%

These rows are one share of the data; most or all hits stand in other tables.
